StopGo FLuc – Primary qHTS Assay for Foot and Mouth Disease Virus Antivirals against NCGC Sytravon and CBC Compound Libraries: Firefly Luciferase Signal | Potency, µM (top dose mostly 57.5 µM), inactives show at the top dose signal change, negative = less light | AID 1745856, 2022 | hit rate 0.23% among 120,000 | HEK cells with a luciferase reporter of 2A StopGo recoding; active = well fitted falling curve with a large enough effect; inconclusive = small, poorly fitted or top-dose-only effect; inactive = no such curve, though single readings can be large or run the other way; note: nearly all actives have a fitted effect of over 60% in size; overnight with compound
StopGo RLuc – Primary qHTS Assay for Foot and Mouth Disease Virus Antivirals against NCGC Sytravon and CBC Compound Libraries: Renilla Luciferase Signal | HEK cells with a luciferase reporter of 2A StopGo recoding | Potency, µM (titrated, usually from 57.5 µM), for the others: at the top dose signal change, negative = less light | hit rate 0.32% among 120,000; active means well fitted falling curve with a large enough effect; inconclusive means small, poorly fitted or top-dose-only effect; inactive means no such curve, though single readings can be large or run the other way; note: nearly all actives have a fitted effect of over 55% in size; overnight with compound
Active calls of the source: *; ? = inconclusive; & = joins results of further samples; [ ] = remark or other dose. % is set by controls: 0 for no effect and ±100 for the full control effect; potency is the fitted concentration of half-maximal effect.

A first look, 5 compounds:
Screens in order: StopGo FLuc | StopGo RLuc
> Clc1ccc2c(N/N=C/c3ccccc3)ccnc2c1
  87.0%[activator] | 21.3%
> COc1ccc(OCC(=O)Nc2ccc(-c3nc4cc(C)cc(C)c4o3)cc2)cc1
  58.3% | 7.4%
> COc1ccc(NC(=O)C(NC(=O)/C=C\c2ccc3c(c2)OCO3)c2ccc(OC)cc2)cc1 (stereo not given)
  -3.8% | 14.3%
> Cc1ccnc2nc(C(=O)OCC(=O)c3c[nH]c4ccccc34)nn12
  -7.4% | 0.5%
> O=c1c2sc3ccccc3c2n(Cc2cccc(C(F)(F)F)c2)c(=O)n1Cc1ccccc1
  -7.1% | -0.2%

The whole of this part, previewed entries included:
Screens in order: StopGo FLuc | StopGo RLuc
> Clc1ccc2c(N/N=C/c3ccccc3)ccnc2c1
  87.0%[activator] | 21.3%
> COc1ccc(OCC(=O)Nc2ccc(-c3nc4cc(C)cc(C)c4o3)cc2)cc1
  58.3% | 7.4%
> COc1ccc(NC(=O)C(NC(=O)/C=C\c2ccc3c(c2)OCO3)c2ccc(OC)cc2)cc1 (stereo not given)
  -3.8% | 14.3%
> Cc1ccnc2nc(C(=O)OCC(=O)c3c[nH]c4ccccc34)nn12
  -7.4% | 0.5%
> O=c1c2sc3ccccc3c2n(Cc2cccc(C(F)(F)F)c2)c(=O)n1Cc1ccccc1
  -7.1% | -0.2%
> Cc1cc(Br)ccc1NC(=O)c1nc2ccccc2nc1N1CCN(C)CC1
  -14.5% | -17.9%
> Cc1ccc(NC(=O)CSc2nncn3c2cc2sccc23)cc1F
  2.5% | -7.6%
> COc1ccc(S(=O)(=O)Nc2cccc(-c3ccc(N4CCCCC4)nn3)c2)cc1F
  202.4%[activator] | 292.1%[activator]
> Cc1nc2ccc(C(=O)NCc3ccccn3)cc2nc1C
  2.2% | -4.8%
> N#Cc1nc(-c2ccccc2)oc1N1CCN(C(=O)c2ccccc2F)CC1
  8.4% | 8.4%
> CN(C(=O)c1ccccc1Br)C(C)(C)C
  7.4% | 10.0%
> CC1CCN(Cc2ccc(C(=O)O)cc2)CC1
  -4.4% | 0.3%
> Cc1ccccc1NC(=O)c1sc2nc(N3CCOCC3)c3c(c2c1N)CC(C)(C)OC3
  215.2%[activator] | 25.7%
> CCc1nc2c3cnn(-c4cc(Cl)ccc4C)c3ncn2n1
  2.6% | -0.5%
> COC(=O)CNc1ccccc1
  26.5% | 8.6%
> CNC(=O)NC(=O)COC(=O)c1ccc2c(=O)n3c(nc2c1)CCCCCC3
  -6.4% | -11.0%
> Nc1cc(N)nc(SCCC(=O)Nc2cccc(Cl)c2)n1
  13.1% | 9.1%
> Cc1ccc(Cl)cc1N1CCN(C(=O)c2noc3c2CCc2sccc2-3)CC1
  23.9% | 9.5%
> O=C(CNc1cccc(Br)c1)N(C1CCCCC1)C1CCS(=O)(=O)C1 (stereo not given)
  3.8% | -5.0%
> COc1ccc(-c2nc(C)c(CCNC(=O)C(=O)Nc3cc(C)cc(C)c3)s2)cc1OC
  32.8%[activator] | 5.9%
> NC(=O)c1ccc(CNC(=O)c2ccccc2Nc2ccccc2)cc1
  37.0%[activator] | 28.5%
> Cc1cccc(C)c1NC(=O)CNC(=O)Cc1nc(-c2ccccc2)oc1C
  3.8% | -6.2%
> CN(Cc1ccsc1)C(=O)CCc1ccccc1
  45.7%[activator] | 134.3%[activator]
> N#Cc1ccc(C(=O)N2CCN(c3nc4ccc(F)cc4s3)CC2)cc1
  ? | ?
> CC(Sc1cccc2cccnc12)C(=O)NC(=O)NC1CC1 (stereo not given)
  95.7%[activator] | -15.2%
> Cc1cc(OC(C)C(=O)Nc2cccc(-c3nc4ccccc4o3)c2)cc(C)c1Cl (stereo not given)
  -4.8% | -13.9%
> CCc1ccc(-c2nc3cc(NC(=O)c4ccc(C)c(C)c4)ccc3o2)cc1
  29.0% | 1.7%
> Cc1nc2n(c(=O)c1C)CN(Cc1cccnc1)CN2c1ccc(Cl)cc1Cl
  9.7% | -4.4%
> CC(C)(C)OC(=O)NCCC(=O)NC1CCCC1
  26.9% | 28.9%
> Cc1ccc(S(=O)(=O)c2[nH]c(-c3ccccc3)nc2SCC(=O)O)cc1
  -1.4% | -17.6%
> Cc1ccc(CS(=O)Cc2cccc(F)c2)cc1 (stereo not given)
  11.9% | 15.0%
> COc1cc2oc(=O)c(CC(=O)NCCCN(C)C)c(C)c2cc1Cl
  -17.3% | -12.1%
> Cc1ccc(S(=O)(=O)c2c(Nc3cc(C)ccc3C)sc(C(=O)c3ccc4c(c3)OCO4)c2N)cc1
  -12.4% | 3.9%
> O=C(NCC1(c2ccccc2)CCCC1)c1ccc(S(=O)(=O)N2CCCC2)cc1
  -13.2% | -4.8%
> Cc1cccc(C)c1NC(=O)COC(=O)CSc1ccc2ccccc2c1
  -16.5% | -4.4%
> CC(C)(C)c1ccc(O)c(O)c1
  -7.6%[22.9 µM] | 33.5%[activator][114 µM]
> Cc1cc(C)c(NC(=O)CSc2nnc3[nH]c(=O)cc(-c4ccccc4)n23)c(C)c1
  21.7% | 3.8%
> COCCn1c(-n2nc(C)cc2C)nc2c1c(=O)n(Cc1ccccc1Cl)c(=O)n2C
  5.8% | 2.8%
> COc1ccccc1CNC(=O)CS(=O)Cc1nc(-c2ccccc2C)oc1C (stereo not given)
  4.2% | 5.2%
> Cc1ccc(Cl)cc1NS(=O)(=O)c1cc2c3c(c1)CC(=O)N3CCC2
  0.0% | 184.9%[activator]
> CCCN(CCC)c1cc(C)nc2nc(-c3ccc(C(C)(C)C)cc3)nn12
  -6.5% | -17.1%
> O=C(CCNS(=O)(=O)c1ccc(F)cc1)N1CCN(c2ncccn2)CC1
  9.6% | 7.1%
> Cc1ccc(C)c(NC(=O)C2CCCN(S(=O)(=O)c3ccc4[nH]c(=O)ccc4c3)C2)c1 (stereo not given)
  -10.0% | 2.2%
> COc1ccc(CNC(=O)Cc2c(C)c3c(OC)cc(C)cc3oc2=O)cc1OC
  5.3% | -5.7%
> COc1cc([C@@H]2c3cc4c(cc3[C@H](O)[C@H]3COC(=O)[C@H]23)OCO4)cc(OC)c1OC
  5.5%[11.5 µM] | 47.0%
> COc1ccc(-c2cc(C(=O)Oc3ccc(C)cc3)c3cc(C)ccc3n2)cc1
  -6.3% | 1.8%
> O=C(NCC(c1ccc2c(c1)OCO2)N1CCN(c2ccccc2)CC1)C(=O)Nc1ccc(F)cc1 (stereo not given)
  85.3%[activator] | 5.2%
> O=C(CN1CCN(c2ccccn2)CC1)N1N=C(c2cc3ccccc3o2)CC1c1ccco1 (stereo not given)
  0.0% | -14.2%
> COc1ccc(NC(=O)c2nnn(CC(=O)Nc3ccc(C)c(C)c3)c2N)cc1OC
  -1.7% | 23.9%
> COc1ccc(OC)c(NC(=O)Cn2ccc3cc(Cl)ccc32)c1
  8.9% | 21.4%
> C=CCNC(=O)c1c(N)n(Cc2ccccc2)c2nc3ccccc3nc12
  -8.5% | 8.9%
> Cc1cc(N2CCN(C)CC2)nc2ccc(NC(=O)Nc3ccc(F)cc3)cc12
  16.0% | 5.3%
> CCc1cc(C(=O)OC)c(N)s1
  8.9% | 0.3%
> CCC(C(=O)Nc1ccc(C(C)C)cc1)n1cnc2ccccc2c1=O (stereo not given)
  7.3% | 9.9%
> CCOc1ccccc1N(C)C(=O)c1cc(S(=O)(=O)NCCc2ccc(Cl)cc2)ccc1F
  ? | 138.4%[activator]
> Cc1ccc(NC(=O)CSc2ncc3c(n2)-c2ccc(Cl)cc2N(C)S3(=O)=O)cc1F
  5.7% | -8.5%
> CCOc1ccc(C(=O)Nc2cccc(-c3nc4cccnc4s3)c2)cc1
  19.2% | -6.7%
> COc1cc(OC)cc(C(=O)Nc2ccc(-c3nc4ccccc4s3)cc2C)c1
  32.6%[activator] | -10.0%
> Cc1oc2cc(OCC(=O)NCc3ccco3)ccc2c(=O)c1Oc1ccccc1Br
  -17.7% | -11.5%
> Cc1ccc(SCc2ccc(C(=O)Nc3cc(C)ccc3C)cc2)cc1
  12.8% | -9.4%

Later entries:
Screens in order: StopGo FLuc | StopGo RLuc
> CCOc1cc2[nH]c(=O)n(CCCCC(=O)N3CCN(c4ccccc4OC)CC3)c(=O)c2cc1OCC
  -9.5% | -3.9%
> COc1ccc2cc(CCNS(=O)(=O)c3ccc(C)cc3)c(=O)[nH]c2c1
  -7.6% | 10.9%
> CCc1nnc(SCC(=O)Nc2ccccc2OC)c2cc3sccc3n12
  -6.4% | -14.3%
> Cc1oc(-c2cccc(Cl)c2)nc1CN1CCCC(C(=O)NCc2ccc(Cl)cc2)C1 (stereo not given)
  9.1% | 1.4%
> O=C(c1ccc2c(c1)N(Cc1ccc(Cl)cc1)C(=O)c1ccccc1S2(=O)=O)N1CCC(Cc2ccccc2)CC1
  -4.8% | 13.5%
> N[n+]1cccc2ccccc21
  36.3%[activator] | -13.7%
> O=C(O)c1cc(-c2ccccn2)nc2ccc(Br)cc12
  13.5%&-11.4% | 14.7%&-14.1%
> CCN1CCN(c2cc(C)c3cc(NC(=O)c4cccc(Cl)c4)ccc3n2)CC1
  37.3%[activator] | -13.2%
> c1ccc2sc(C34CC5CC(CC(C5)C3)C4)nc2c1
  2.0% | -0.6%[1.06 µM]
> N#Cc1ccc(CNCCN2CCCC2)cc1
  -5.2% | 1.1%
> CCCN(C(=O)c1ccc2c(=O)n3c(nc2c1)CCCCC3)c1cccc(Cl)c1
  70.0%[activator] | -5.6%
> COc1ccc(-c2nc(CS(=O)(=O)CC(=O)NCCCN3CCN(C)CC3)c(C)o2)cc1
  9.8% | ?
> COc1ccc(Br)cc1CNC(=O)CCCn1c(=O)c2cccn2c2cccnc21
  10.6% | 31.7%[activator]
> Cc1ccccc1CN1C(=O)c2ccccc2Sc2ccc(C(=O)NC3CCCC3)cc21
  -21.5% | -5.0%
> COc1ccc(C2=NN(CC(=O)NCc3ccccc3Cl)C(=O)CC2)cc1
  -15.8% | 8.0%
> CCN1C(=O)C2(c3ccccc31)c1c(oc3ccc(F)cc3c1=O)C(=O)N2CCCOC (stereo not given)
  -7.1% | ?
> O=C(COC(=O)c1ccccc1Br)Nc1nc(-c2ccccc2)cs1
  66.4%[activator] | -3.5%
> CC(=O)NCCc1ccc(C(=O)COC(=O)c2ccc(C)c(O)c2)s1
  8.9% | -7.8%[1.06 µM]
> Cc1ccc2nc(-c3ccc(Cl)s3)c(Nc3ccc4c(c3)OCCO4)n2c1
  72.6%[activator] | -13.2%
> CN(C)CC#CCC(O)(c1ccccc1)C1CCCC1 (stereo not given)
  18.0% | -7.0%
> O=C(O)CNS(=O)(=O)c1ccc(C(=O)/C=C/c2ccccc2Cl)cc1
  1.2% | 4.4%
> COc1ccc(NC(=O)[C@H]2C[C@H](CC(C)C)N[C@]23C(=O)Nc2c(C)cc(Cl)cc23)cc1
  -4.4% | 17.2%
> O=C(Nc1ccc(OC2CCCC2)cc1)c1cccnc1
  181.5%[activator] | 22.0%
> CCN(CC)C(=O)c1sc(NC(=O)c2nc3ncccn3n2)c(C(=O)OC)c1C
  2.1% | -19.8%
> Oc1ccccc1OCCOCCOc1ccccc1O
  30.2%[activator] | 20.9%
> Cc1ccc(C(=O)NC(C2CC2)C2CC2)cc1
  14.4% | 20.0%
> CC(C)(C)c1ccc(C2=NC(C)(C)N(CC(=O)Nc3ccc(F)c(F)c3)C2=O)cc1
  3.4% | 3.3%
> CCCOc1nc2ccccc2nc1N1CCC(C(=O)NCc2ccc(Cl)cc2)CC1
  5.5% | 2.9%
> CCCCc1c(C)[nH]c2ccccc2c1=O
  35.2%[activator] | -0.3%
> C=CCN(Cc1ccccc1)C(=O)Nc1ccc(C(=O)NCC)cc1
  11.7% | -5.3%
> CCN(Cc1ccccc1)C(=O)c1cc2cccc(OC)c2oc1=O
  15.8% | 100.4%[activator]
> CC1CCc2sc(C(=O)OCC(=O)NCCC3=CCCCC3)cc2C1 (stereo not given)
  -12.1% | -3.7%
> C[C@]12CC[C@@H]3c4ccc(OC(=O)N(CCCl)CCCl)cc4CC[C@H]3[C@@H]1CC[C@@H]2O
  -24.1%[11.5 µM] | -17.0%
> CCn1c(SCC(=O)c2cc3ccccc3o2)nnc1C1CC1
  35.0%[activator] | 3.5%
> CCN(CC)S(=O)(=O)NC1CCN(c2ncccn2)CC1
  -2.9% | -8.4%
> Cc1ccc(C(=O)C(Cl)c2ccc(C)cc2)cc1 (stereo not given)
  0.0% | 28.6%
> CCOc1ccccc1NC(=O)CN(C)S(=O)(=O)c1ccc2nc(C)sc2c1
  ? | 31.6µM*
> Cc1nc2nc(SCC(=O)NCc3ccccc3)nn2c(C)c1Cc1ccccc1
  33.3%[activator] | 35.5%[activator]
> COc1ccc(NC(=O)CSc2nc3c([nH]c4ccccc43)c(=O)n2C)cc1
  -1.2% | 6.2%
> CCC(C)NC(=O)CSc1ncnc2c1cnn2-c1ccccc1 (stereo not given)
  26.1% | 2.0%
> CCN(C(=O)c1ccc2c(=O)n3c(nc2c1)CCCCC3)c1ccccc1
  10.8% | 0.8%
> CCCn1c(=O)n(CC(=O)Nc2ccc(C(C)CC)cc2)c(=O)c2c1nc(C)n2CCOC (stereo not given)
  3.9% | -3.8%
> CCN(CC)C(=O)C1CCN(c2cc(C)nc3c(-c4ccc(OC)c(OC)c4)c(C)nn23)CC1
  -19.4% | -6.2%

Assay outcomes (PubChem)
